From PubChem BioAssay
HSD17B inhib: HSD17B dehydrogenase inhibition. 75,000 tested, 7.6% active. Potency, µM (titrated, usually from 57.1 µM), without a hit: at the highest dose activity change, negative = inhibition, most hits filed as inhibitors. recombinant HSD17B10, NADH fluorescence kinetic; many of its hits are not listed in these tables. AID 893; active = well fitted inhibition curve with a large enough effect; inconclusive = small, poorly fitted or top-dose-only effect; inactive = no such curve, though single readings can be large or run the other way;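 note: the protocol describes HADH2 (HSD17B10) and not the HSD17B4 of the title; nearly all actives have a fitted effect of over 70% in size; most hits overshoot -100% by far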
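Enzyme plus compound, 15 min room temperature; substrate mix added (NAD+ 1 mM, beta-hydroxybutyryl-CoA 90 uM final); plates read kinetically for NADH fluorescence. HADH2 was His-tagged, E. coli-derived, 20 nM.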
* marks the source's active call; other numbers are inactive results; ? = inconclusive; & = joins results of further samples; [ ] = dose if it differs, or a comment. % is set by controls: 0 for no effect and ±100 for the full control effect; potency is the fitted concentration of half-maximal effect. This is a subset; count on the stated rates, not on these rows.

SMILES | HSD17B inhib
COc1cccc(N2CCN(Cc3ccc(Cl)cc3)CC2)c1 | -5.8%
CCC1(C)Cc2ccccc2-c2c1c(=O)n(Cc1ccccc1)c1nnnn21 (stereo not drawn) | 6.31µM*
CCC1=C(C[C@H]2NCCc3cc(OC)c(OC)cc32)C[C@H]2c3ccccc3CCN2C1 | 5.5%[11.4 µM]
O=C(Cn1ncc2c3ccccc3n(Cc3ccccc3F)c2c1=O)N1CCC2(CC1)OCCO2 | 3.1%
O=P1(NC2CCCC2)COc2ccccc2OC1 | 2.3%
CC1(C)CN=C(NCc2ccccc2Cl)S1 | 0.9%
COc1ccc2c(c1)CCC1C2CC[C@@]2(C)C(O)CCC12 (stereo partly drawn) | 39.0%[activator]
COC1=CC2C3Cc4ccc(OC)c(O)c4[C@]2(CCN3C)CC1=O (stereo partly drawn) | -3.4%
CCOC(=O)CC(SP(=O)(OC)OC)C(=O)OCC (stereo not drawn) | -5.7%
O=c1[nH]c(=O)n(C2CCCCCC2)c(O)c1C=NCC1CCCO1 (stereo not drawn) | -5.3%
O=[N+]([O-])c1ccc2nc(N3CCNCC3)ccc2c1 | -9.3%
COc1cc2c(cc1OC)[C@H](C)NCC2 | 2.0%[25.6 µM]
CCCCn1c(=O)c(C(=O)NCc2ccncc2)c(O)c2ccccc21 | 12.1%
O=C(c1ccc(CS(=O)(=O)c2ccccc2)o1)N1CCC2(CC1)OCCO2 | -9.1%
COP(=O)(OC)[C@@H](O)C(Cl)(Cl)Cl | 1.8%[25.6 µM]
O=Cc1ccc(Cl)cc1Cl | -1.6%
CCN1C[C@@]2(C)CC[C@@H](OC)[C@@]34C2C(O)[C@@]2(OCO[C@]25CC(OC)C2C[C@@]3(O)C5C2O)C14 (stereo partly drawn) | 2.5%
C/C(=C\[C@@H](N)C(=O)O)CP(=O)(O)O | -3.6%
C[C@@H]1O[C@H](O[C@@H]2CC[C@@]3(C=O)[C@H]4CC[C@@]5(C)[C@@H](C6=CC(=O)OC6)CC[C@@]5(O)[C@@H]4CC[C@]3(O)C2)C[C@H](O)[C@@H]1O | 1.3%[25.6 µM]
COc1cc2c(cc1OC)[C@]13CCN4CC5=CCOC6CC(=O)N2[C@@H]1[C@@H]6C5C[C@@H]43 (stereo partly drawn) | 6.1%
OCCOc1ccccc1 | -4.9%
O=C(O)C12C3CCCC1C32c1ccccc1 (stereo not drawn) | 4.1%
FC(F)(F)C1=NC(C(F)(F)F)=NP(N2CCOCC2)(N2CCOCC2)=N1 | 8.9%
O=C(CN1CCN(Cc2cccc(Cl)c2)C1=O)N1CCC2(CC1)OCCO2 | 11.2%
CCOc1ccccc1N=C1SCCCN1C | -12.6%
NC(=O)c1ccc(C(=O)Nc2ccc([As](=O)(O)O)cc2)cc1 | 5.4%[11.4 µM]
O=C1CC(N2CCC(n3c(=O)[nH]c4ccccc43)CC2)C(=O)N1Cc1ccccc1 (stereo not drawn) | -17.8%
c1cc2c(cc1C1OC[C@@H]3C(c4ccc5c(c4)OCO5)OCC13)OCO2 (stereo partly drawn) | -86.8%
CCCCc1nc2ccccc2c(=O)n1-c1ccc(O)cc1 | -5.8%
COc1ccc(CNCC(=O)N2CCC3(CC2)OCCO3)cc1 | 4.8%

Shown in CSV form: entries from further up.
smiles,HSD17B inhib
CCC1=C(C[C@H]2NCCc3cc(OC)c(OC)cc32)C[C@H]2c3ccccc3CCN2C1,5.5%[11.4 µM]
O=C(Cn1ncc2c3ccccc3n(Cc3ccccc3F)c2c1=O)N1CCC2(CC1)OCCO2,3.1%
O=P1(NC2CCCC2)COc2ccccc2OC1,2.3%
CC1(C)CN=C(NCc2ccccc2Cl)S1,0.9%
COc1ccc2c(c1)CCC1C2CC[C@@]2(C)C(O)CCC12 (stereo partly drawn),39.0%[activator]
COC1=CC2C3Cc4ccc(OC)c(O)c4[C@]2(CCN3C)CC1=O (stereo partly drawn),-3.4%
CCOC(=O)CC(SP(=O)(OC)OC)C(=O)OCC (stereo not drawn),-5.7%

Additional records follow:
SMILES | HSD17B inhib
COc1cc(OC)cc(-n2nc(C(=O)N3CCC4(CC3)OCCO4)c3ccccc3c2=O)c1 | 7.5%
O=C(Cc1ccc(Br)cc1)N1CCN(Cc2ccccc2)CC1 | -3.7%
Cc1cc(Cl)ccc1N=Cc1c(O)n(C)c(=O)n(C)c1=O | 186.6%[activator]
CC(C)[C@@H](Br)C(=O)NCC(=O)O | 14.2%[11.4 µM]
Oc1cc2c(cc1O)[C@H]1c3ccccc3CN[C@H]1CC2 | 1µM*
c1cnc(N2CCCC3(CCNCC3)C2)nc1 | ?
CCOC(=O)c1c(C)n(Cc2ccccc2)c2ccc(OCC(O)Cn3nc(C)nc3C)cc12 (stereo not drawn) | -3.1%
CC1(C)C2CC=C(CN3CCOCC3)C1C2 (stereo not drawn) | 10.0%
O=c1cccc2n1CC1CC2CN(c2ncnc3c2cnn3-c2ccccc2)C1 (stereo not drawn) | -8.1%
CC(=NCc1cccnc1)c1c(O)n(-c2ccc(C)cc2)c(=O)[nH]c1=O | 7.3%
CC(C)(c1ccc(OCC2CO2)cc1)c1ccc(OCC2CO2)cc1 (stereo not drawn) | -9.0%
COc1cc(CCN)ccc1O | 5.0%
c1ccc(N2CCC3(CCNCC3)CC2)cc1 | -3.0%
Cc1nnc(SCc2nc3ccccc3c(=O)n2-c2ccccc2Cl)n1N | -3.3%
O=[As](O)(O)c1ccc(NCc2ccccc2)cc1 | -3.6%[11.4 µM]

Continued (2 carried over from the part before).
SMILES | HSD17B inhib
Cc1nnc(SCc2nc3ccccc3c(=O)n2-c2ccccc2Cl)n1N | -3.3%
O=[As](O)(O)c1ccc(NCc2ccccc2)cc1 | -3.6%[11.4 µM]
O=C1CS[C@@H](c2ccccc2Cl)c2cc(Cl)ccc2N1 | -8.2%
O=C(Cn1ncc2ccccc21)N1CCC2(CC1)OCCO2 | 7.0%
Cc1ccc(C2(c3ccc(C)c(O)c3C)CCN(C)CC2)c(C)c1O | 4.3%[11.4 µM]
O=S(=O)(Nc1nccs1)c1ccc([As](=O)(O)O)cc1 | 13.1%[11.4 µM]
CC(C)NC(C)C | 5.7%
C[C@@]12Cc3cnc(-c4ccccc4)nc3C[C@@H]1CC[C@@H]1[C@H]3CC[C@@](C)(O)[C@]3(C)CC[C@@H]12 | -4.4%[11.4 µM]
CCN[C@]1(c2cccs2)CCCCC1=O | 2.7%[25.6 µM]
c1cc(CCN2CCCCC2)ccn1 | 4.8%[11.4 µM]
CCC(C)(C)n1nnnc1C(c1cccs1)N1CC=C(c2ccc(F)cc2)CC1 (stereo not drawn) | -29.5%
CCNC(C)(C)[C@@H](SS)c1ccc(Br)cc1 | -13.8%[11.4 µM]
CN1C(=O)N(C)C(=O)C2(Cc3c(nc4ccccn4c3=O)N3CCC(Cc4ccccc4)CC32)C1=O (stereo not drawn) | 68.7%[activator]
CC[N@+]1(C)CCC[C@@H](OC(=O)C(O)(c2ccccc2)c2ccccc2)C1 | 9.4%[25.6 µM]
C=C1C/C(=C\C)C(=O)O[C@@H]2CCN3CC=C(COC(=O)[C@@]1(C)O)[C@H]23 | 9.5%[25.6 µM]
COc1cccc(-c2cc(C(F)(F)F)n3nc(C(=O)N4CCC5(CC4)OCCO5)cc3n2)c1 | -0.5%
C=C[C@H]1CN2CCC1C[C@@H]2C(O)c1ccnc2ccccc12 (stereo partly drawn) | -8.4%
CC1=CC(=O)C2=C(C)C[C@H](O)[C@H]3[C@H](C)C(=O)O[C@@H]3C12 (stereo partly drawn) | 5.5%
O=c1[nH]c(=O)n(-c2cccc(Cl)c2)c(O)c1/C=N/c1ccccn1 | -15.9%
CN(C(=O)Cc1ccc(Cl)c(Cl)c1)[C@@H](CN1CCCC1)c1cccc(OCC(=O)O)c1 | -14.2%&2.7%
Cc1ccc2c(c1)C1CN(C)CCC1N2C(=O)Cc1cccs1 (stereo not drawn) | -2.8%
COc1ccn(C)c(=O)c1C#N | 0.7%
O=C1NO[C@H]2[C@@H]1CN[C@@H]2C(=O)O | -7.3%
CCCCCC[C@H]1C(=O)O[C@H](C)[C@H](NC(=O)c2cccc(NC=O)c2O)C(=O)O[C@@H](C)[C@H]1OC(=O)CC(C)C | ?
O=C(CCS(=O)(=O)c1ccc(Br)cc1)N1CCC2(CC1)OCCO2 | 3.3%
O=C(Cc1ccccc1)OCc1ccccc1 | -1.9%
CC(C)CC(NC(=O)C1CCCCC1)C(=O)N1CCC2(CC1)OCCO2 (stereo not drawn) | 6.1%
Cc1cc(OCC(=O)Nc2cc(C)nn2-c2ccccn2)c2c3c(c(=O)oc2c1)CCC3 | ?
CO[C@H]1C=C2CCN(C)[C@@H]2[C@@H]2c3cc4c(cc3C(=O)O[C@H]21)OCO4 | -8.5%[25.6 µM]
COc1cc2c(cc1OC)[C@@H]1C(=O)c3ccc4c(c3OC1CO2)CC(C(C)C)O4 (stereo partly drawn) | -5.8%
N[C@H](CCP(=O)(O)O)C(=O)O | 4.1%&-4.3%
Cn1c(O)c(C=Nc2ccc3c(c2)CCC3)c(=O)n(C)c1=O | ?
O=C1C2CCCN2C(c2cccs2)N1c1ccccn1 (stereo not drawn) | -3.7%
Cc1c(C(=O)N2CCC3(CC2)OCCO3)oc2ccccc12 | 7.5%
Cc1nc2ccccc2cc1C[N+]12CN3CN(CN(C3)C1)C2 | 9.1%[11.4 µM]
C/C=C1\C[C@H](C)[C@@](O)(CO)C(=O)OCC2=CCN3CC[C@@H](OC1=O)[C@@H]23 | 3.4%[25.6 µM]
CCC1CN2CCC1CC2C(O)c1ccnc2ccccc12 (stereo not drawn) | -4.1%
COC(=O)c1ccc(CN2CCN(Cc3ccccc3)CC2)cc1 | 2.4%
CN1CC[C@@]2(CCCN(C(=O)Oc3ccccc3)C2)C1 | -6.9%
C=CCn1c(O)c(C(C)=NCc2cc(OC)cc(OC)c2)c(=O)[nH]c1=O | 6.9%
O=C(Cc1ccccc1)N1CCN(Cc2c[nH]c3ccccc23)CC1 | 10.3%
CC(C)n1nnnc1CN1CCN(C)CC1 | 3.0%
COc1ccc(C=O)cc1 | -0.3%
O=C(c1cc2c(s1)CCCC2)N1CCC2(CC1)OCCO2 | -0.7%
CCOC(=O)c1c(C)n(COCCO)c2ccc(O)cc12 | 2.8%
Cc1cccc(C2=NCC(=O)N(CC(=O)NCc3ccco3)c3sc4c(c32)CCCC4)c1 | ?
O=C1NC(=O)N(C2CCCCC2)C(=O)C1C1c2ccccc2C(=O)N1Cc1ccccc1 (stereo not drawn) | 3.0%
N[C@@H](Cc1c[nH]c2cc([N+](=O)[O-])ccc12)C(=O)O | -1.5%[11.4 µM]
Cn1c(C(=O)O)c(CC(=O)N2CCN(Cc3ccccc3)CC2)c2ccccc21 | -2.8%
CN1CCN(CCC(C#N)(c2ccccc2)c2ccccc2)CC1 | -1.5%
Cc1cc(N=Nc2ccccc2C)ccc1N | -5.0%
Clc1nc(Cl)nc(Nc2ccccc2Cl)n1 | -3.4%
Nc1ccc([N+](=O)[O-])cc1[N+](=O)[O-] | -1.0%
CC(=NCC1CCCO1)c1c(O)n(-c2ccc(Cl)cc2)c(=O)[nH]c1=O (stereo not drawn) | 1.2%
CNC(=O)O/N=C(/C)SC | -3.9%
CN(C)C1(c2nnnn2CCOC(=O)Nc2ccc(Cl)cc2)CCCCC1 | -2.2%
OC1(c2ccccc2F)CC2CCC(C1)N2CCN1CCOCC1 (stereo not drawn) | 13.4%
Cc1cccc(-n2c(O)c(C=NCCCN3CCOCC3)c(=O)[nH]c2=O)c1C | -9.8%
O=C(Cc1ccccc1)N1CCN(C2CCCC2)CC1 | 11.2%
O=C(CN1CCN(Cc2ccc(Cl)cc2)C1=O)N1CCC2(CC1)OCCO2 | 13.6%
COc1ccc(C(CC(=O)N2CCC3(CC2)OCCO3)NS(=O)(=O)c2ccc(C)cc2)cc1 (stereo not drawn) | -0.5%
O=C(O)c1cccc(Cl)c1 | 8.2%

The listing continues:
SMILES | HSD17B inhib
Cc1ccc([N+](=O)[O-])cc1C | 1.4%
CCN(c1ccc(C(O)(C(=O)OC)C(F)(F)F)cc1)S(=O)(=O)c1ccccc1 (stereo not drawn) | 5.5%
Nc1ccc(-c2ccc(N)c(Cl)c2)cc1Cl | -2.4%
CC(C)N(C(=O)CCl)c1ccccc1 | -9.6%
COc1cc2c(c(OC)c1OC)-c1ccc(O)c(=O)cc1[C@H](N)CC2 | -5.0%[25.6 µM]
COc1ccc(P2(=O)Nc3ccccc3N2)cc1 | -13.0%
O=P(/C(=N/O)N1CCOCC1)(N1CCOCC1)N1CCOCC1 | 5.1%
OCC1CO1 (stereo not drawn) | 0.2%
CC(C)N1CCC2(CC1)NC(CO)(CO)CO2 | 3.3%
CN(C)CCN=Cc1c(O)n(C2CCCCCC2)c(=O)[nH]c1=O | 5.7%
Cc1ccccc1-n1c(O)c(C=Nc2ccc3c(c2)OCO3)c(=O)[nH]c1=O | -7.7%
CCC(=NCc1ccco1)c1c(O)n(-c2ccccc2)c(=O)[nH]c1=O | 0.9%
COC(=O)COc1cc(Cl)c(Cl)cc1Cl | 4.8%
C[C@]12Cc3cn4c(nc3C=C1CC[C@H]1[C@@H]2CC[C@@]2(C)[C@H]1CC[C@@]2(O)C#N)nc1ccccc14 | 2.8%
CCCC(C)C1C(C#N)=C(N)Oc2c1c(=O)oc1ccccc21 (stereo not drawn) | 18.2%
Cc1cccc(C)c1NC1=NCCCS1 | 8.1%
CC(=O)CCC(C)=O | -4.1%
Clc1ccc(C(Cl)(Cl)Cl)c(Cl)c1 | -7.5%
C=CCN1C[C@H](C)N([C@@H](c2ccccc2)c2ccc(C(=O)N(CC)CC)cc2)C[C@H]1C | -10.4%
N#Cc1cc2c(nc1SCC(=O)Nc1ccc(Cl)cc1)C1CCN2CC1 | -35.2%
Cc1sc2ncn(CC(=O)N3CCC4(CC3)OCCO4)c(=O)c2c1C | 15.4%
COc1ccc(CNC(=O)/C=C\c2ccc3[nH]cc(CCN(C)C)c3c2)cc1 | -23.9%
